Source: PubChem (National Center for Advancing Translational Sciences (NCATS))
Cruzain noTriton: qHTS Assay for Promiscuous and Specific Inhibitors of Cruzain (without detergent) | purified cruzain, Z-FR-AMC fluorescence, no detergent | Potency, µM, for inactives: max response, negative = inhibition, hits mostly inhibitors | 2.3% of 200,000 active | AID 1476, 2009; active = well fitted curve in the direction sought with a large enough effect; inconclusive = small, poorly fitted or top-dose-only effect, or another doubt; inactive = no such curve, though single readings can be large; an effect the other way counts as inactive or inconclusive;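 note: plate controls were enzyme without inhibitor for no effect and buffer without enzyme for full effect; nearly all actives have a fitted effect of over 40% in size; top concentration of the series not given in the record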
Target sequence (P25779 123-467 limits assumed): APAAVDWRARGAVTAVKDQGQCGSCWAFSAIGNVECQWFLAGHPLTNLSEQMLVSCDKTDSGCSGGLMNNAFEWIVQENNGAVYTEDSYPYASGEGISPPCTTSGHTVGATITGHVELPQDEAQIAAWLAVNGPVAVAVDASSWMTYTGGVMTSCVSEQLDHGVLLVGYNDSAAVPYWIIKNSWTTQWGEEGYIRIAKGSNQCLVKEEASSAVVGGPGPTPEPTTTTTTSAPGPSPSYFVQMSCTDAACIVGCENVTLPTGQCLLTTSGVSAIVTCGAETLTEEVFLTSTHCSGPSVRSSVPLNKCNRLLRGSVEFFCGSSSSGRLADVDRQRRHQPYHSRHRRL
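Detergent-free condition (0.00005% Triton X-100) in acetate buffer pH 5.5 with DTT. 1.5 nM enzyme and compound were pre-mixed 15 min, then 2 uM Z-FR-AMC substrate added; reaction progress from fluorescence change between first and third reads (60 s).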
MARV entry inh: qHTS for inhibitors of binding or entry into cells for Marburg Virus. 1.8% of 300,000 active. Marburg virus pseudotyped entry inhibition, cell reporter; control for the full effect not named in the record; about a third of the inactives were read at about 46 µM. Potency, µM (doses to about 37.8 µM), for the others: at the highest dose activity change, negative = inhibition, most hits filed as inhibitors; active = well fitted inhibition curve with a large enough effect; inconclusive = small, poorly fitted or top-dose-only effect, or effect the other way; inactive = flat fitted curve, though single readings scatter; tested in HEK293 cells; about a fifth of its hits are not listed in these tables; note: % is set by controls: 0 for no effect and ±100 for the full control effect; luciferase read-out
SARS PLpro yeast: qHTS of Yeast-based Assay for SARS-CoV PLP | S. cerevisiae expressing SARS-CoV PLpro, growth rescue; control for the full effect not named in the record | Potency, µM (top dose mostly 32.9 µM), for inactives: at the highest dose activity, positive = growth rescue | 0.19% of 330,000 active | AID 485353, 2010; note: 0% is about no effect; nearly all actives have a fitted effect of over 55% in size; growth read by luminescence after 48 h
NS1 inh: qHTS Assay for Inhibitors of Influenza NS1 Protein Function; S. cerevisiae slowed by influenza A NS1, growth recovery by OD600; Potency, µM (highest dose often 46.1 µM), inactives show top-dose activity, positive = more growth; 0.4% of 270,000 active; note: actives are rising curves; nearly all actives have a fitted effect of over 50% in size
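S. cerevisiae expressing influenza A NS1, grown in glucose, washed, then diluted 1:100 into pH 6.0 -URA galactose medium with 23 nl compound. Growth recovery read as OD600; NS1-free strain serves as control.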
Cruzain Triton: qHTS Assay for Promiscuous and Specific Inhibitors of Cruzain (with detergent); Cruzipain (Trypanosoma cruzi), P25779; purified cruzain, Z-FR-AMC fluorescence, 0.01% Triton; Potency, µM, without a hit: max response, negative = inhibition, hits mostly inhibitors; 0.43% of 200,000 active; AID 1478, 2009; active = well fitted curve in the direction sought with a large enough effect; inconclusive = small, poorly fitted or top-dose-only effect, or another doubt; inactive = no such curve, though single readings can be large; an effect the other way counts as inactive or inconclusive;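 note: plate controls were neutral wells for no effect and buffer without enzyme for full effect; nearly all actives have a fitted effect of over 40% in size; top concentration of the series not given in the record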
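Detergent-containing run (0.01% Triton X-100) in acetate buffer pH 5.5 with 5 mM DTT: enzyme at 1.5 nM final, 15 min compound preincubation at room temperature, then 2 uM Z-FR-AMC substrate. Activity taken as 60 s fluorescence increase at 360/450 nm.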
StopGo reporter: High Throughput Screening for Foot and Mouth Disease Virus Antivirals | Potency, µM (doses to about 57.9 µM), for inactives: at the top dose signal change, negative = less light | 1.2% of 410,000 active | human cells with a luciferase reporter of 2A StopGo recoding; control for the full effect not named in the record; active = well fitted falling curve with a large enough effect; inconclusive = small, poorly fitted or top-dose-only effect; inactive = no such curve, though single readings can be large or run the other way; tested in HEK293T cells; note: % is set by controls: 0 for no effect and ±100 for the full control effect; nearly all actives have a fitted effect of over 45% in size; luciferase light after 4 h
RE007 growth inh: qHTS Assay for Inhibitors of the HIV-1 protein Vpr. Potency, µM (top dose mostly 92.2 µM), for the others: top-dose activity change, negative = less growth. 0.21% of 360,000 active. S. pombe RE007 Vpr strain, BacTiter-Glo ATP luminescence, 24 h; control for the full effect not named in the record. AID 651644, 2012; active = well fitted falling curve with a large enough effect; inconclusive = small, poorly fitted or top-dose-only effect; inactive = no such curve, though single readings can be large or run the other way;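 note: % is set by controls: 0 for no effect and ±100 for the full control effect; nearly all actives have a fitted effect of over 50% in size; the assay follows cell death caused by Vpr and the record does not say whether a fall means rescue or toxicity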
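Fission yeast RE007 carrying one integrated HIV-1 vpr copy, seeded at OD 0.01 in PMG+AL medium with 23 nL pinned compound. Grown 24 h at 30 degrees; viability read by BacTiter-Glo luminescence after 5 min.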
LASV entry inh: qHTS for Inhibitors of binding or entry into cells for Lassa Virus | Potency, µM (top dose mostly 37.9 µM), for the others: top-dose activity change, negative = inhibition, most hits filed as inhibitors | 1.2% of 300,000 active | Lassa virus pseudotype entry inhibition, cell reporter; control for the full effect not named in the record; active means well fitted inhibition curve with a large enough effect; inconclusive means small, poorly fitted or top-dose-only effect, or effect the other way; inactive means flat fitted curve, though single readings scatter; tested in HEK293 cells; note: % is set by controls: 0 for no effect and ±100 for the full control effect; nearly all actives have a fitted effect of over 50% in size; luciferase read-out
An asterisk follows results filed as active; ? = inconclusive; / = not tested or not shown; & = joins results of further samples; [ ] = another dose, or the depositor's remark. Unless noted, calls come from the whole dose curve; as a rule, active means well fitted rising curve with a large enough effect; inconclusive means small, poorly fitted or top-dose-only effect; inactive means no such curve, though single readings can be large or run the other way. Potency is the fitted concentration of half-maximal effect.

Order of results – Cruzain noTriton, MARV entry inh, SARS PLpro yeast, NS1 inh, Cruzain Triton, StopGo reporter, RE007 growth inh, LASV entry inh
- COc1cccc(NC(=S)NC(C)c2ccc(OC)c(OC)c2)c1 (stereo not given)
 : /, -3%[46.1 µM], -1%, 7%, /, 6%, -3%, /
- Clc1ccc(/C=N/N2CCN(Cc3ccccc3)CC2)cc1
 : /, /, -3%, 26%, /, 19%, -23%, /
- O=C(NCc1ccccc1Cl)C(=O)NCC(c1cccs1)S(=O)(=O)c1cccs1 (stereo not given)
 : 14%, /, /, /, -4.2%, -19%, /, ?
- COc1cc(OC)cc(C(C(=O)NCc2ccccc2)N(Cc2ccco2)C(=O)c2ccno2)c1 (stereo not given)
 : 3%, -20%[46.1 µM], 0%, -13%, -3.6%, -19%, -5%, -4%
- N#CCC1c2ccccc2CCN1C(=O)Nc1ccc(Cl)cc1 (stereo not given)
 : 11%, 10%, -5%, -10%, -3.2%, 12%, -19%, 4%
- O=C1/C(=C\c2cccc(O)c2O)SC(=S)N1Cc1ccccc1
 : /, ?, -9%, -18%, /, ?, ?, ?
- COc1ccccc1N/C(=N/S(=O)(=O)c1ccc(C)cc1)c1ccccc1
 : -26%, ?, -2%, -14%, -6.4%, 0%, 0%, -6%
- CC(=O)Nc1sc(N/N=C/c2ccc(N(C)C)cc2)nc1-c1ccc(C)cc1
 : /, /, 5%, 3%, /, 28%, 9%, /
- O=C(CN1C(=O)C2C3C=CC(C3)C2C1=O)NCc1ccco1 (stereo not given)
 : 0%, 7%, 18%, 5%, 1.4%, -1%, 6%, 8%
- Cc1cccn2c(=O)c(/C=C(\C#N)C(=O)NCc3ccccc3)c(N3CCC(C(N)=O)CC3)nc12
 : /, 15%[46.1 µM], 1%, 2%, /, -3%, 25%, 9%
- Cc1ccc(Cl)cc1NC(=O)CCCN1C(=O)c2cccnc2C1=O
 : /, -10%[46.1 µM], -4%, /, /, -12%, 12%, 3%
- CCOCCCn1c(=N)c(C(=O)NCCN2CCOCC2)cc2c(=O)n3cccc(C)c3nc21
 : -6%, ?, -1%, -1%, -3.2%, -17%, ?, -11%
- COc1ccccc1CNC(=O)C1=C(C)C(=O)OC12CCC(C)CC2 (stereo not given)
 : 4%, /, -6%, -13%, -0.6%, -18%, 1%, /
- CSCC[C@H](NC(=O)C1CCN(S(=O)(=O)c2ccc(C)cc2)CC1)C(=O)NC1CCS(=O)(=O)C1 (stereo not given in full)
 : 12%, 9%, -3%, ?, -0.5%, 0%, 43%, 3%
- CC1C(C)N(C(=O)CCl)c2ccccc2N1C(=O)CCl (stereo not given)
 : /, ?, /, /, /, 3.5µM*, 4%, ?
- CC(C)(C)C(=O)Nc1ccc2nc(SCC(=O)N3CCc4ccccc43)sc2c1
 : 13%, ?, /, /, -2.9%, ?, /, ?
- CCCCCCCCCCCCCCCC[N+](C)(C)CCl
 : /, 15%, /, /, /, -21%, 22µM*, 7%
- O=C(Nc1ccc(F)cc1F)c1cccn1-c1ncc(C(F)(F)F)cc1Cl
 : -11%, -17%, -2%, -13%, -3.7%, -11%, -23%, 26%
- O=C1c2ccccc2NC(c2ccc(-c3cccc([N+](=O)[O-])c3)o2)N1O (stereo not given)
 : ?, ?, 10µM*, ?, -4.8%, -13%, 14%, ?
- CC1(C)OC2OC(C3COC(=O)O3)C(OC(=O)c3ccccc3)C2O1 (stereo not given)
 : /, 17%[46.1 µM], /, /, /, 0%, -5%, 10%[46.1 µM]
- COc1ccccc1C1C(C(=O)c2cc3ccccc3o2)=C(O)C(=O)N1CCN1CCOCC1 (stereo not given)
 : 16%, 3%, -3%, -11%, -1.6%, 22%, -11%, -3%
- COCCCn1c(SCC(=O)Nc2ccccc2OC)nc2c(sc3ccccc32)c1=O
 : ?, /, /, /, 0.1%, -15%, /, ?
- CCSc1nnc(NC(=O)C(Cc2ccccc2)n2cccc2)s1 (stereo not given)
 : ?, /, ?, 7%, 0.6%, -25%, -6%, /
- COc1cccc2cc(C(=O)C3=C(O)C(=O)N(CCN4CCOCC4)C3c3ccc(Cl)cc3)oc12 (stereo not given)
 : /, -1%[14.2 µM], 0%, 8%, /, -6%, 0%, 5%
- COC(=O)C(C)Oc1ccc2cc(-c3ccccc3)c(=O)oc2c1 (stereo not given)
 : /, ?, /, -2%, /, 15%, 5%, 12%[46.1 µM]
- N#Cc1c2n(c(=S)n(-c3ccccn3)c1=O)CCCCC2
 : -15%, ?, -1%, ?, -7.0%, 22%, -7%, 2%
- COC(=O)c1cc(-c2cccc([N+](=O)[O-])c2)c2c(=O)[nH]c(=O)n(C)c2n1
 : /, 2%[46.1 µM], -1%, -1%, /, 0%, 10%, 20%[46.1 µM]
- Cc1cn(C(=O)CN2C(=O)c3ccccc3C2=O)c(C)n1
 : -2%, 8%, -31%, 1%, 2.1%, -5%, 41%, 11%
- Clc1ncccc1OCc1ccccc1
 : /, 3%, /, /, /, 53%[activator], -24%, 1%
- N#Cc1nc(COc2ccccc2Cl)oc1NCc1cccnc1
 : 0%, 2%, 3%, ?, -7.0%, -7%, 2%, 0%
- C(=N\n1cnnc1)/c1ccc(OCc2cccc3ccccc23)cc1
 : 16%, ?, -12%, -101%, -4.7%, ?, -13%, ?
- Cc1cc(-c2cccs2)c2c(n1)sc1c(=O)[nH]c(=O)[nH]c12
 : 0%, 3%, 6%, 17%, -4.4%, 18%, 1%, ?
- Cn1c(=O)[nH]c2c(c1=O)CCO2
 : /, -2%, /, /, /, -22%, 5%, -1%
- CC(C)CNC(=O)C(=O)Nc1c2c(nn1-c1ccccc1)CS(=O)(=O)C2
 : -8%, /, /, /, -0.5%, -4%, /, 25%[46.1 µM]
- COc1ccccc1OCCC(=O)OCC(=O)Nc1cc(S(=O)(=O)N2CCOCC2)ccc1Cl
 : /, 10%[46.1 µM], -1%, /, /, -18%, -11%, 13%[46.1 µM]
- CC1CCc2nn(CC(=O)NCCCN3CCCC3=O)cc2C1 (stereo not given)
 : -5%, /, 12%, 3%, 3.2%, -1%, 3%, /
- COc1ccc(Cn2c(=O)[nH]c3cc(C(=O)NC4CCN(Cc5ccccc5)CC4)ccc32)cc1
 : /, 9.2µM*, -1%, 4%, /, ?, -13%, -25%
- CCOc1ccc(C(=O)NCC(c2ccc3c(c2)OCO3)N2CCN(c3ccccc3F)CC2)cc1 (stereo not given)
 : 11%, /, /, /, 6.6%, -25%, /, ?
- Cc1nc(SCC(=O)Nc2cccc(C(=O)O)c2)n[nH]1
 : /, /, -10%, -3%, /, -3%, -9%, /
- Cc1cc(C)nc(N/N=C/c2ccccc2)n1
 : -3%, 17%, -4%, -7%, -6.1%, 43%[activator], -13%, 6%
- CCc1nc2cccnc2n1-c1ccc(C(=O)O)cc1
 : /, /, 0%, 3%, /, -16%, 6%, /
- Cc1ccc(S(=O)(=O)N(Cc2n[nH]c(=S)n2-c2ccccc2)c2ccccc2)cc1
 : /, -11%[46.1 µM], 0%, 5%, /, -5%, 10%, ?
- COc1cc(NC(=O)c2ccc3oc(=O)c(S(=O)(=O)c4ccccc4)cc3c2)cc(OC)c1
 : 3%, ?, /, /, 1.1%, ?, /, -6%[46.1 µM]
- Cc1cc(N/N=C\c2ccc(Br)cc2)nc(-n2nc(C)cc2C)n1
 : /, 2.2µM*, 1%, 2%, /, -38%, 9%, ?
- Cc1occc1-c1nnc(SCc2nnc(-c3ccc(Cl)cc3)o2)n1C
 : 7%, 3%&5%, 8%, -14%, -2.3%, 16%, -14%, 9%
- Cc1c(Br)cc(C(=O)O)c(C)c1C
 : -4%, 1%, -2%, -97%, 3.1%, -6%, 5%, 15%
- CCN1CCN(c2ccc(NC(=O)c3ccc4c(c3)OCCO4)cc2C)CC1
 : /, ?, -1%, /, /, 12%, -22%, -2%
- CCn1c(SCC(=O)c2cccs2)nnc1-c1cccs1
 : -9%, 23%, -4%, -7%, -2.1%, 55%[activator], 16%, ?
- O=C(C1=C[C@H](c2csc3ccccc23)C[C@H](OCc2ccc(CO)cc2)O1)N1CCOCC1
 : /, /, -1%, 3%, /, -21%, 4%, /
- Cc1cc(NC(=O)CSc2nnc(C)n2-c2ccccc2C)no1
 : /, 1%[46.1 µM], -1%, /, /, -7%, 2%, /
- COc1ccc(S(=O)(=O)N2CCN(CC(=O)c3ccc(O)c(O)c3)CC2)cc1
 : /, /, -5%, -8%, /, -14%, 2%, /
- Cc1cc(C)cc(C(=O)n2nc(C)c(S(=O)(=O)N3CCOCC3)c2C)c1
 : 2%, /, /, /, 1.1%, 12%, /, 14%[46.1 µM]
- COc1ccc(Cl)cc1NC(=O)CCNC(=O)Cn1ccc2ccccc2c1=O
 : /, -3%[46.1 µM], 15%, -12%, /, -6%, 0%, 14%
- CCOc1ccccc1-c1nc(CN(Cc2cnn(C)c2)C(C)C)c(C)o1
 : /, ?, 0%, 2%, /, -4%, 4%, -1%[46.1 µM]
- CC(=O)c1ccc(NC(=O)c2ccc(C)c(Br)c2)cc1
 : /, ?, -2%, 0%, /, 23%, 4%, ?
- CN1CCN(C(=O)C2CC(=O)N(c3ccc(F)c(Cl)c3)C2)CC1 (stereo not given)
 : -6%, /, 5%, 1%, 5.0%, -15%, -2%, /
- CN(CC(=O)Nc1c(F)cccc1F)Cc1cccs1
 : /, 21%[46.1 µM], 15%, 10%, /, 17%, 1%, 4%[46.1 µM]
- O=S1(=O)CSCS(=O)(=O)C1
 : /, -3%[46.1 µM], /, /, /, 4%, -6%, 4%[46.1 µM]
- CC(=O)c1c(C)[nH]c(C(=O)COC(=O)c2ccc3c(=O)n4c(nc3c2)CCC4)c1C
 : 8%, -3%, 5%, 2%, -3.5%, 4.5µM*, 2%, 9%
